# Bioassay records as filed in PubChem.
# FGF22 binding = binders of recombinant human FGF22 by thermal shift. SYPRO orange fluorescence; percent of sucrose octasulfate shift, DMSO zero. calls only at 9.99 µM. Q9HCT0. actives 1.5% (n = 340,000);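 active = melting point raised past a set limit in the mean and every replicate; inconclusive = no clear call; three in four hits are not shown here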
# HNF4A DNA FP = change in binding of human HNF4 alpha to DNA. P41235. activity change, % at 10 µM. actives 0.3% (n = 360,000). AID 1224865. HNF4a-FITC DNA binding, fluorescence polarization, 1 h; in the data active = activity change above about 30%, passing the limit was not always enough;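 note: controls were the assay level and a saturating level of protein; the project sought stronger binding though the title names inhibitors; some compounds called inactive have numbers as strong as hits; positive values seem to mean higher polarization but the record does not say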
# Target sequence (P41235 whole entry, looked up): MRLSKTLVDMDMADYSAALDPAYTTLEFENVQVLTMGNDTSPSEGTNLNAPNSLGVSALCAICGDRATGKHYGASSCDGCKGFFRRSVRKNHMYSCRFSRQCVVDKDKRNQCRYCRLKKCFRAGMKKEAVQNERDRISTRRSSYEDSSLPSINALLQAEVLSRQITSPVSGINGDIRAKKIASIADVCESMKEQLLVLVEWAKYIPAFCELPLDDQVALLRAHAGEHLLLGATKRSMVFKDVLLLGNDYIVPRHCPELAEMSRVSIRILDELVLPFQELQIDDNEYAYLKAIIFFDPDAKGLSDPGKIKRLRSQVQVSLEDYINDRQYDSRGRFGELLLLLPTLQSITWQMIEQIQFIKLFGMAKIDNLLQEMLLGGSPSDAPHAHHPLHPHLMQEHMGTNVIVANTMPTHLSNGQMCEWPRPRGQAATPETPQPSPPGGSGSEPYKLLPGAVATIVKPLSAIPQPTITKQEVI
# UCH37 DUB inh = blocks the human deubiquitinase UCH37; Q9Y5K5; purified proteasome/UCH37, Ub-AMC cleavage fluorescence; inhibition, % (test concentration not listed); actives 0.33% (n = 330,000);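 active = mean of two replicates above 20%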;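 note: 0% = compound-free wells with enzyme and 100% = wells lacking proteasome; stock transfer was 100 nL into about 20 µL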
#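 Test system – human UCH37 enzyme supplied as purified proteasome complex · Incubation – 30 min preincubation with enzyme, 25 min cleavage at room temperature · Detection – AMC fluorescence from Ub-AMC cleavage, excitation 355 nm, emission 460 nm · Benchmarks – no-proteasome wells (full inhibition) and compound-free wells (no inhibition)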
# E coli growth = E. coli growth inhibition; Escherichia coli growth, OD600, 23 h; hits give low values; OD600 absorbance (no concentration beside the values); actives 0.21% (n = 330,000);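 active = OD600 absorbance below the run mean of sample wells minus 3.6 SD, in any replicate, cut at about 0.56 in these data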;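 note: stock transfer was 300 nL into about 60 µL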
# Vif TR-FRET = HIV-1 Vif–A3G interaction blockers – biochemical, TR-FRET, GST-Vif 1-94, biotin-A3G peptide, dose response retest, primary screen (AID 1117319); inhibition, %; hits with a dose series show IC50 in µM; actives 0.57% (n = 260,000); TR-FRET GST-Vif / biotin-A3G peptide binding; higher % means a stronger effect; test concentration not given here; strong numbers were not always called active;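 active = above the screen mean plus three standard deviations and confirmed in dose response; inconclusive = results disagree or hit not tested in dose response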;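 note: Vif residues 1-94 fused to GST binding biotinylated APOBEC3G peptide 110-148; 0% = full assay without inhibitor and 100% = GST in place of GST-Vif; retest series ran down from 100 µM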
# RanGTP-Imp inh = inhibitors of RanGTP-importin-beta interaction, primary screen, biochemical, FRET, CFP-Ran, YFP-importin-beta, homogeneous; cell-free CFP-Ran/YFP-importin-beta FRET ratio; inhibition, % (no concentration beside the values); actives 1.1% (n = 300,000);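 active = most replicates above 15%; inconclusive = exactly half above 15%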;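 note: 0% = DMSO wells and 100% = Ran loaded with GDP instead of GTP; wells of about 40 µL received 100 nL stock; the first replicate is given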
# MLL AF4-AF9 inh = inhibitors of human MLL-AF4/AF9 interaction | AlphaScreen, biotin-AF4 peptide binding to FLAG-AF9 | inhibition, % at 10 µM | actives 0.47% (n = 350,000) | P42568;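 active = every replicate reaching a set inhibition limit, whatever the replicate mean, cut at about 25% in these data; inconclusive = mean inhibition reaches that limit but some replicates miss it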;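 note: 0% = plate neutral control median and 100% = total signal loss; the record names both 10 and 1 µM as test concentration; the first replicate is given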
# Target sequence (P42568 whole entry, looked up): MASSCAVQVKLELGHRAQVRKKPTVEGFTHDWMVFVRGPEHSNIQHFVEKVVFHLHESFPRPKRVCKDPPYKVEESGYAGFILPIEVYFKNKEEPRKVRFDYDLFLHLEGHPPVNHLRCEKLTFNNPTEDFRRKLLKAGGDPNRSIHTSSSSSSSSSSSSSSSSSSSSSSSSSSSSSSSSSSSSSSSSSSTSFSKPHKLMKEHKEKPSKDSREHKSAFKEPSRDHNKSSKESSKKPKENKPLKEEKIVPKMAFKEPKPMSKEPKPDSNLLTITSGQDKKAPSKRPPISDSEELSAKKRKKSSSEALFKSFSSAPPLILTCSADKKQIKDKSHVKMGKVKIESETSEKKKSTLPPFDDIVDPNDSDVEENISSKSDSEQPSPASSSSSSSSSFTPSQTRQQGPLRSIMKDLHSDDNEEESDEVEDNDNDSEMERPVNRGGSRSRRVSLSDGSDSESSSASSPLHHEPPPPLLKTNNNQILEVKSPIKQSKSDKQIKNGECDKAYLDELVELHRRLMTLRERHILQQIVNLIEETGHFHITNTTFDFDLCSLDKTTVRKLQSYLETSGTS
# An asterisk follows results filed as active; i = inactive; ? = inconclusive; . = not tested or not shown; & = joins results of further samples. These rows are one share of the data (hit frequency here may not be typical).
SMILES,FGF22 binding,HNF4A DNA FP,UCH37 DUB inh,E coli growth,Vif TR-FRET,RanGTP-Imp inh,MLL AF4-AF9 inh
CSc1ncccc1C(=O)Nc1cccc(S(=O)(=O)N(C)c2ccccc2)c1,i,0.6,-0.4,0.674,.,.,0.5
CC1CN(C(=O)COC(=O)c2cc(Cl)ccc2[N+](=O)[O-])CC(C)O1 (centres undefined),i,3.0,2.3,0.659,.,-1.0,1.9
CCc1c(C(C)=O)oc2ccc3c(C)cc(=O)oc3c12,i,2.5,-6.4,0.703,8.8%,4.1,2.7
COc1ccc(NC2CCCN(C(=O)c3ccc(OC)o3)C2)cc1 (centres undefined),i,-0.9,0.2,0.655,-1.1%,-1.8,4.6
Cc1cc(=O)n2c(ccc3ccccc32)c1C#N,.,5.3,2.6,0.709,3.1%,3.6,.
COc1ccc(CC(=O)Nc2cc(C)ccn2)cc1,.,-3.9,-1.8,0.713,4.0%,-7.8,.
O=C(Nc1nc(=O)c2ccccc2s1)c1ccc(Cl)cc1,.,6.8,5.3,0.787,8.2%,2.0,.
O=C(NO)C1CC2C=CC1C2 (centres undefined),.,0.6,-2.1,0.706,8.5%,0.3,.
CCC(=O)N(C(=O)CC)N1CCN(c2ccncc2S(=O)(=O)N2CCCCC2)CC1,i,-0.8,1.7,0.727,.,2.1,-5.3
COc1ccc(Cc2c(-c3ccc(C)cc3)nc3c4ccccc4ccn23)c(C)c1,i,12.3,.,.,.,.,1.6
CCN(CC)C(=O)c1[nH]cnc1C(=O)N[C@@H](CC(C)C)C(=O)OCc1ccccc1,i,3.4,0.3,.,5.4%,3.6,4.1
O=C(Oc1c(Cl)cc(Cl)c2cccnc12)c1cccc([N+](=O)[O-])c1,.,1.2,4.1,0.071*,.,-1.1,.
CNC[C@@H]1Oc2c(NC(=O)Nc3ccc(F)cc3)cccc2C(=O)N([C@H](C)CO)C[C@@H]1C,i,14.2,-3.0,0.755,.,.,1.4&9.1
Cc1ccc(CSCC(=O)Nc2ccccc2)cc1,i,-44.8,-1.1,0.645,-8.9%,3.2,-2.3
O=C(NCCc1ccncc1)c1ccccc1F,.,-0.6,1.3,0.719,-0.2%,2.4,.
CCOC(=O)CCNC(=O)N1CCCC(CNS(=O)(=O)c2cccs2)C1 (centres undefined),i,-2.0,3.1,0.689,.,2.2,0.2
O=C(NCc1cccnc1)NC(=O)c1ccc(Cl)cc1,i,7.0,5.2,0.678,.,1.9,0.4
CCOc1ccc(N(C(C)C(=O)NC(C)CC)S(C)(=O)=O)cc1 (centres undefined),.,-1.0,-1.8,0.73,28.4%,-1.5,.
O=C([C@H](Cc1ccccc1)NS(=O)(=O)c1ccc(Cl)cc1)N1CC[C@@]2(O)CCCC[C@H]2C1,.,-2.6,-0.8,.,1.4%,2.3,.
Cc1cc(C)n(Cc2nc3ccccc3n2C)n1,.,2.7,0.6,0.71,2.4%,-1.4,.
COc1cccc2sc3cc(C#Cc4ccccn4)ccc3c(=O)c12,i,-4.1,-0.1,0.707,.,.,-0.6
COC(=O)CNc1cc(S(=O)(=O)N2CCCCC2)ccc1Oc1ccc(C(=O)OC)cc1,i,3.9,1.3,0.593,.,2.9,-0.5
COc1ccccc1C(CC(=O)c1ccccc1)CC(=O)c1ccccc1,i,0.8,1.7,0.696,4.8%,-2.4,-2.5
O=C(NCc1cccs1)C1CCN(S(=O)(=O)c2cccc3nsnc23)CC1,.,0.1,1.0,0.748,-9.1%,7.0,.
CC(C)N(Cc1ccccc1)C(=O)COC(=O)c1cnccn1,i,0.4,-1.9,0.706,4.5%,-1.3,-1.2
O=C(CSc1nc2ccccc2c(=O)[nH]1)Nc1ccc(S(=O)(=O)N2CCCC2)cc1,.,3.4,3.8,0.666,8.3%,0.1,.
O=c1[nH]c(Cc2ccccn2)nc2scc(-c3ccccc3Cl)c12,i,16.5,-2.9,0.728,5.0%,7.4,1.0
COc1ccccc1NC(=O)N1CCCC(C(=O)Nc2cccc(C)c2C)C1 (centres undefined),.,-0.4,2.8,0.685,-1.6%,6.6,.
Cc1cc(C)cc(NS(=O)(=O)c2ccc(NC(=O)C3CCCCC3C(=O)O)cc2)c1 (centres undefined),.,2.0,5.6,0.668,15.5%,-2.0,1.2
On1c(-c2ccc(Cl)cc2)nc2ccccc21,i,3.1,0.3,0.62,10.6%,1.4,0.2
COc1cc(C=NCc2ccccc2)ccc1O,i,5.3,.,.,2.3%,.,0.5
CCOc1ccc(NS(=O)(=O)c2ccc(C(=O)N3CCN(C(C)=O)CC3)cc2)cc1,i,-0.7,4.3,0.736,.,-0.6,-1.1
CC(C)n1c(/N=C/c2ccccc2O)nc2ccccc21,i,2.7,.,.,2.4%,0.2,-2.0
CCOC(=O)c1cc(CC)sc1NC(=O)c1ccc(N2CCOCC2)c([N+](=O)[O-])c1,i,-0.3,0.4,0.739,-6.0%,3.8,3.5
Cc1nnc(SCc2nc3ccccc3[nH]2)s1,.,-1.9,4.3,0.682,8.8%,0.6,.
c1csc(CNCCN2CCOCC2)c1,.,13.7,0.8,0.678,5.2%,1.6,.
COc1cc(C(=O)NCC(=O)N/N=C/c2c(C)[nH]c3ccccc23)cc(OC)c1OC,i,-0.6,.,.,2.1%,3.9,.
COc1ccc(C(=O)c2ccccc2)cc1CN1CCOCC1,.,-0.6,.,.,0.9%,.,-1.4
O=C1NCC(O)=C1C=NCCCO,.,0.8,0.4,0.666,-3.6%,-4.0,.
O=C(c1ccccc1F)N1CCN(c2ccc([N+](=O)[O-])c(NCC3CCCO3)c2)CC1 (centres undefined),i,1.8,5.3,0.719,-0.6%,?,8.1

# Part of the list above, set out differently.
# Sequence of screens – FGF22 binding, HNF4A DNA FP, UCH37 DUB inh, E coli growth, Vif TR-FRET, RanGTP-Imp inh, MLL AF4-AF9 inh
COc1ccccc1NC(=O)N1CCCC(C(=O)Nc2cccc(C)c2C)C1 (centres undefined)
 : ., -0.4, 2.8, 0.685, -1.6%, 6.6, .
Cc1cc(C)cc(NS(=O)(=O)c2ccc(NC(=O)C3CCCCC3C(=O)O)cc2)c1 (centres undefined)
 : ., 2.0, 5.6, 0.668, 15.5%, -2.0, 1.2

# Going on with the list:
SMILES,FGF22 binding,HNF4A DNA FP,UCH37 DUB inh,E coli growth,Vif TR-FRET,RanGTP-Imp inh,MLL AF4-AF9 inh
Cn1c(SCc2ccc(Br)cc2)nnc1-c1cccs1,.,-3.1,0.1,0.688,-4.2%,?,.
OCCC#Cc1ccc(CN2CCN(CCc3ccccc3)C(CCO)C2)cc1 (centres undefined),i,0.5,0.8,0.666,.,4.1,0.6
COc1ccc2[nH]c(=O)c(C(c3nnnn3C3CCCC3)N(C)C3CCCCC3)cc2c1 (centres undefined),.,0.6,-21.4,0.67,?,-3.2,.
CS(=O)(=O)N(CC(=O)N1CCC(C(N)=O)CC1)c1ccc(Oc2ccccc2)cc1,.,-4.5,-2.6,0.726,-8.3%,?,.
CCCNC(=O)c1cc(-c2ccc3c(c2)OCO3)on1,i,-0.3,3.8,0.666,2.8%,7.5,-5.4
COC(=O)Cc1ccc2oc(-c3cccnc3)nc2c1,i,-3.0,-2.1,0.686,-1.5%,0.9,1.6
N#Cc1nc(-c2ccco2)oc1NCc1ccco1,.,-4.1,-30.6,0.673,0.8%,0.8,.
CN(C(=O)C1CCC1C(=O)O)c1nc(-c2ccc(Cl)s2)cs1 (centres undefined),i,-0.1,6.0,0.644,-3.1%,-0.8,-1.2
Brc1cccc(OCCSc2ncccn2)c1,i,-0.3,4.8,0.68,.,-1.9,-0.9
CC(C)c1cc(C(=O)N/N=C/c2c[nH]c3ccccc23)n[nH]1,i,-6.3,.,.,-8.9%,1.9,-1.1
O=C(CS(=O)(=O)c1ccccc1)Nc1nnc(C(F)(F)F)s1,i,-5.6,0.7,0.659,-2.4%,2.3,-4.0
Cc1ccc2cc(C(c3nnnn3C3CCCC3)N3CCN(c4ccc(F)cc4)CC3)c(=O)[nH]c2c1 (centres undefined),.,-5.7,2.5,0.701,?,-0.3,.
COc1ccc(CN2C(=O)C(CC(=O)NC(c3ccccc3)c3ccccc3)CC(C(=O)N(C)C)=C2C)cc1 (centres undefined),i,4.5,.,.,-0.2%,.,1.7
CC(=O)NC(C)c1ccc(C(=O)CSc2nnc(C3CC3)n2C2CC2)cc1 (centres undefined),i,2.9,1.7,0.703,-3.4%,.,-3.8
Cc1ccc(-c2nc3ccccc3[nH]c2=O)cc1,i,0.4,-63.8,0.688,?,3.4,0.7
CN(Cc1cn(C)nc1-c1ccc(Oc2ccccc2)cc1)CC1COCCO1 (centres undefined),i,-1.5,2.4,0.669,9.3%,-2.8,0.1
COc1ccc(NC(=O)CSc2cc(C(=O)c3nccn3C)c3ccccc3n2)cc1,i,-1.0,3.3,0.684,2.3%,-0.4,2.5
O=c1[nH]c(CSc2ncn[nH]2)nc2ccccc12,i,6.4,1.9,0.684,-6.9%,-2.5,3.4
C=C[C@]12CC[C@H](OC(C)=O)CC1=CCC1C2CC[C@@]2(C)C1CCC21OCCO1 (some centres undefined),i,1.8,3.7,0.706,-0.4%,.,0.5
Cc1ccc(C(C2C(=O)CC(C)(C)CC2=O)C2C(=O)CC(C)(C)CC2=O)s1,.,1.0,2.7,0.744,-4.2%,3.1,.
CCCC1=[N+](CC(=O)c2ccc(C)cc2)CCn2cccc21,.,1.7,-2.8,0.693,.,-7.8,.
COc1ccc(Nc2ccc(Nc3ccc(OC)cc3)nn2)cc1,i,2.7,2.1,0.717,.,2.0,3.9
CC1CC2OC2CC1COC(=O)C1CC2OC2CC1C (centres undefined),i,1.7,1.1,0.672,-4.5%,.,-2.7
COc1ccc(-c2csc(C(NC(C)=O)c3cccc(F)c3)n2)cc1 (centres undefined),i,-3.9,.,.,.,.,-0.6
O=C(CN1CCCCC1)N/N=C/c1cc2ccccc2nc1Cl,.,6.7,.,.,2.0%,-1.2,-2.8
O=S(=O)(NCc1ccco1)c1cccc(S(=O)(=O)N2CCCCC2)c1,.,1.3,2.7,0.723,18.6%,-5.1,.
Cc1ccc(C(=O)N/C(=C/c2ccc(-c3ccc([N+](=O)[O-])cc3)o2)C(=O)NCCCN(C)C)cc1,i,6.3,12.5,0.689,.,-25.8,11.2
O=[N+]([O-])c1cccc(-c2cc(C(F)(F)F)n3nc(-c4ccccc4)cc3n2)c1,i,1.1,-3.9,0.653,-4.1%,3.1,-0.8
Cc1cc(-c2ccccc2)nn1-c1nc2c(c(=O)[nH]c(=O)n2C)n1C,.,0.5,2.1,0.68,7.3%,-2.5,.
Oc1c(C(c2ccc(Cl)cc2)N2CCCC2)cc(Cl)c2cccnc12 (centres undefined),i,-3.7,-0.6,0.589,?,-4.9,55.6*
O=C(NC(=S)NCC1CCCO1)c1ccccc1 (centres undefined),i,1.6,8.0,0.71,.,-0.2,2.4
C(=C\c1ccccc1)/CN1CCN(C(CCc2ccccc2)c2nnnn2C2CCCCC2)CC1 (centres undefined),i,1.0,.,.,.,.,2.1
COc1cc(/C=C(\NC(C)=O)C(=O)NC(C)(C)CC(C)(C)C)ccc1OC(C)=O,i,0.3,-1.9,0.652,.,0.1,3.7
CCc1ccc2c(c1)C1(NN=C(c3cccc4ccccc34)S1)C(=O)N2 (centres undefined),.,-1.0,.,.,23.3%,-27.4,.
c1ccc(COc2ccc(OCCOCCn3cncn3)cc2)cc1,.,-0.6,1.0,0.692,2.5%,-2.8,.
